# Rango dissoc inh: inhibitors of RanGTP-induced Rango-importin beta complex dissociation. O95149+P62826. hit rate 0.071% among 340,000. Biochemical FRET Rango-importin beta, RanGTP-induced dissociation. AID 540253. Potency, µM (doses to about 46.1 µM), for the others: top-dose activity change, negative = inhibition; active means falling FRET ratio curve, often poorly fitted, with flat reads before Ran was added; inconclusive means other falling curves, or compound fluorescence or quenching; inactive means flat or rising ratio curve;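 further: potency means the concentration at half of the fitted maximal effect; % of control where 0% means no effect; nearly all actives have a fitted effect of over 45% in size; -100% = wells without RanGTP and RCC1; the record marks most hits as doubtful in a second field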
#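 Two FRET readings bracket the reaction: one 5 min after compound meets Rango–importin beta, another 45 min after RanGTP-RCC1 (0.6 uM Ran, 0.2 uM RCC1, 2 mM GTP) is added. Only the second defines inhibition.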
# miR-21 reporter: miR-21 reporter, rising signal. HeLa miR-21 FLuc reporter, luciferase, 48 h. Potency, µM (titrated, usually from 38.3 µM), for the others: at the highest dose reporter change, positive = more light. 340,000 tested, under 10 active. AID 2288; active = well fitted rising curve with a large enough effect; inconclusive = small, poorly fitted or top-dose-only effect; inactive = no such curve, though single readings can be large or run the other way;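 further: % of control where 0% means no effect; miR-21 action dims this reporter so a rising signal means less miR-21 action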
#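 Compounds were titrated across several concentrations (up to approximately 40 uM) and incubated 48 hours with HeLa miR-21-FLuc reporter cells (miR-21 target sequence downstream of FLuc, endogenous miR-21). Readout was firefly luciferase luminescence after lytic detection reagent.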
# GLA inh pH 4.5: alpha-galactosidase A (human) inhibition, pH 4.5; 230,000 tested, under 10 active; activity change, negative = inhibition, % at 105 µM; purified enzyme, 4-MU-alpha-Gal fluorescence, pH 4.5; inconclusive = small, poorly fitted or top-dose-only inhibition, or a rising curve; inactive = flat fitted curve, though single readings scatter; no compound was filed as active;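 further: 0% = full activity with enzyme and -100% = basal without enzyme; dose as in the result columns while the protocol names 77 µM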
# Rango-impB inh: prevents formation of the Rango-importin beta complex. hit rate 0.031% among 340,000. Rango CFP/YFP FRET sensor + importin beta, 45 min. Potency, µM (highest dose often 92.2 µM), inactives show at the highest dose inhibition of complex formation. Q14974; active = rising FRET ratio curve, often small or poorly fitted; inconclusive = mostly compound fluorescence or quenching in the first reads; inactive = flat curves in all reads;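 further: potency means the concentration at half of the fitted maximal effect; 0% = DMSO wells and 100% = buffer wells lacking importin beta; nearly all actives have a fitted effect of over 15% in size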
# Target sequence (Q14974 whole entry, looked up): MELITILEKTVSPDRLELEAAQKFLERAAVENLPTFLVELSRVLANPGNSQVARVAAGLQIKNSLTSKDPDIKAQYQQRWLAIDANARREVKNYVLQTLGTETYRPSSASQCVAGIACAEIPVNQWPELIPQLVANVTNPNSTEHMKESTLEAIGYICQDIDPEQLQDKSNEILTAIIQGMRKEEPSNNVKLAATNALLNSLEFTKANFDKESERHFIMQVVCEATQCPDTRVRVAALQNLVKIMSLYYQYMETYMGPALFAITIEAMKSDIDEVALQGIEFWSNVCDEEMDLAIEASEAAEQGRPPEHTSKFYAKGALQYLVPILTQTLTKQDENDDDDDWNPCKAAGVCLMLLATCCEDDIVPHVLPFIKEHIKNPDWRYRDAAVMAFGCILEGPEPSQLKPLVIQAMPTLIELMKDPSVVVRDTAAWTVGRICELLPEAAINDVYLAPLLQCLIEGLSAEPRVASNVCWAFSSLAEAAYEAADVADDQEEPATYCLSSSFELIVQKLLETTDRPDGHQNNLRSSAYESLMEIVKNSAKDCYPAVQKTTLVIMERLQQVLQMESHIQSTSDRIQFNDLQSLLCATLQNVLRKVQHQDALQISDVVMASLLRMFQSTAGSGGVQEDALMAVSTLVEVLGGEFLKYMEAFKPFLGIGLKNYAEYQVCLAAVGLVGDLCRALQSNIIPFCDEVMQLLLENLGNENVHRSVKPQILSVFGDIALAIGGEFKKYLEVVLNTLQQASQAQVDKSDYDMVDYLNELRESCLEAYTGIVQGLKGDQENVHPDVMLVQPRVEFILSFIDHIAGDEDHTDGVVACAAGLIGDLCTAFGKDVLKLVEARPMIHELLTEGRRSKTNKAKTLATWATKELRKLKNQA
#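 FRET biosensor Rango (snurportin 1 IBB between N-terminal EYFP and C-terminal Cerulean), 50 nM in PBS/1 mM DTT/0.02% Tween-20/0.1% BSA, preincubated 5 min RT with compound; 0.125 microM importin beta added, 45 min RT, CFP/YFP FRET ratio read.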
# Active calls of the source: *; ? = inconclusive; / = no result given; & = joins results of further samples.
(1) COc1ccc(C)cc1S(=O)(=O)NNc1nc(C)cc(C)n1
(2) O=C(O)c1oc2ccccc2c1-n1cccc1
(3) COc1ccc(F)cc1C(=O)C1CCCN(Cc2cn(C)c3ccccc23)C1 (configuration not stated)
(4) O=C(CSc1nc2ccccc2c(=O)n1-c1ccccc1)N1CCCc2ccccc21
(5) CCCCn1c(N)c(N(C(=O)CSc2nnnn2-c2ccccc2C)C2CCCC2)c(=O)[nH]c1=O
(6) CCOc1ccc2[nH]c3c(NCC(C)C)ncnc3c2c1
(7) COC(=O)c1cc(OC)c(OC)cc1NC(=S)N1CCN(Cc2ccccc2)CC1
(8) Clc1ncn(CCOc2ccccc2)c1Cl
(9) CCN(CC)C(=O)Cn1cc(C(=O)C(=O)NCCCn2ccnc2)c2ccccc21
(10) Cc1nc2cc(Cl)ccc2n1-c1ccccc1
Compound,1,2,3,4,5,6,7,8,9,10
GLA inh pH 4.5,/,6,-2,-9,/,/,4,-4,-28,3
Rango dissoc inh,0%,-1%,11%,1%,-6%,2%,-7%,-9%,13%,2%
Rango-impB inh,3.2%,-0.5%,-0.5%,2.9%,-2.1%,1.7%,-1.5%,1.9%,1.9%,-1.6%
miR-21 reporter,/,-5%,1%,-13%,/,-6%,-3%,-12%,-1%,-22%

(11) O=C(COC(=O)Cc1c[nH]c2ccccc12)NC1CCCCC1
(12) Cc1nn(-c2ccccc2)c2[nH]c(C(F)(F)F)cc(=O)c12
(13) Cn1c(=O)cc(N2CCCCC2)[nH]c1=O
(14) O=C(CCN1C(=O)c2ccccc2C1=O)Nc1ccc(S(=O)(=O)NC2=NCCCCC2)cc1
(15) Cc1ccccc1NC(=O)Nc1ccc(C(F)(F)F)cc1
(16) COCCCNC(=O)C(=O)NC1CCCCCC1
(17) CCOC(=O)C1=C(N)OC2=C(C(=O)CC(C)(C)C2)C1c1ccccc1OCC#N (configuration not stated)
(18) COc1ccc(/C(C)=N/NC(=O)CNC(=O)C(c2ccccc2)c2ccccc2)c(OC)c1
(19) Cc1ccc(C2C(C#N)=C(N)N(c3cccnc3)C3=C2C(=O)CCC3)s1 (configuration not stated)
(20) COc1ccc(NC(=O)CN2CCc3ccccc3C2)cc1
Compound,11,12,13,14,15,16,17,18,19,20
GLA inh pH 4.5,-9,-1,0,6,-4,-6,-3,/,8,/
Rango dissoc inh,-7%,-11%,16%,1%,10%,1%,-3%,-10%,?,7%
Rango-impB inh,-1.2%,1.4%,3.1%,-0.5%,-1.5%,-0.1%,2.5%,-0.3%,?,4.8%
miR-21 reporter,0%,1%,-3%,-1%,-5%,-33%,3%,9%,-23%,/

(21) COc1cc(C(=O)Nc2nnc(SCC(=O)NCC3CCCO3)s2)cc(OC)c1OC (configuration not stated)
(22) O=c1oc(-c2ccc([N+](=O)[O-])cc2)nc2ccc(O)cc12
(23) Cc1c(C2(O)CCCCC2)[nH]c2ccc(C(F)(F)F)cc12
(24) Cc1cc(NS(=O)(=O)c2ccc(NC(=O)C(CC(C)C)N3C(=O)c4ccccc4C3=O)cc2)nc(C)n1 (configuration not stated)
(25) CCN(CC)CC(=O)Nc1ccc(C)cc1Br
(26) CCC(C)(C)NC(=O)Nc1cc(Cl)ccc1OC
(27) Cc1ccc(S(=O)(=O)N2CCC(C(=O)OCc3c(C)noc3C)CC2)cc1C
(28) Cc1csc(NC(=O)C2CCCN(S(=O)(=O)c3ccc(Br)s3)C2)n1 (configuration not stated)
(29) Cc1cc(=O)n(CC=C(Cl)Cl)c2ccccc12
(30) C=CC[N+]1(CC#CCOC(c2ccccc2)c2ccccc2)CCOCC1
Compound,21,22,23,24,25,26,27,28,29,30
GLA inh pH 4.5,/,-5,/,-5,-10,0,/,-9,8,-4
Rango dissoc inh,-5%,-6%,-19%,26%,-11%,14%,-5%,-19%,-1%,-8%
Rango-impB inh,9.3%,2.1%,0.4%,4.1%,-1.2%,-1.9%,1.7%,-1.9%,-5.1%,0.9%
miR-21 reporter,-1%,0%,/,-1%,-10%,-1%,/,15%,-27%,1%

(31) Nc1cc(=O)n(Cc2ccccc2)c(=O)n1-c1ccc(Cl)cc1
(32) O=C(CCNC(=O)c1ccc(Cl)cc1)Nc1nc2ccccc2[nH]1
(33) O=C(COC(=O)CSc1ccc(Cl)cc1)Nc1ccc2[nH]c(=O)[nH]c2c1
(34) Cc1ccc(N=Nc2ccc(C)cc2NC(=O)Nc2ccccc2F)cc1
(35) Cc1ccc(-n2nnc(-c3nccn3C)n2)cc1
(36) CC(C)(C)c1ccc(NC(=O)C(=O)C2C(=O)Nc3ccccc32)cc1 (configuration not stated)
(37) O=C(NCc1ccco1)C(c1ccccc1)N(C(=O)Cc1cccs1)c1ccccc1 (configuration not stated)
(38) CCCOc1cccc(C2C(C(=O)c3ccco3)=C(O)C(=O)N2CCN(CC)CC)c1 (configuration not stated)
(39) COc1ccccc1NC(=O)CON=C(N)CC(=O)NC1CCCCC1
(40) COC(=O)c1ccc(NC(=O)C(=O)N2CCN(C(=S)NCCc3ccccc3)CC2)cc1
Compound,31,32,33,34,35,36,37,38,39,40
GLA inh pH 4.5,-9,/,/,-11,0,4,0,-11,/,-1
Rango dissoc inh,-3%,21%,14%,-7%,22%,-10%,0%,-9%,-13%,-9%
Rango-impB inh,-4.7%,0.8%,-2.1%,-2.6%,-0.3%,-0.4%,4.0%,?,?,-4.2%
miR-21 reporter,-3%,/,/,-38%,15%,0%,-1%,-1%,/,19%

(41) COc1ccc(/C=N/Nc2nc(=O)[nH]nc2C)cc1[N+](=O)[O-]
(42) O=C(CSc1ncn[nH]1)Nc1ccccc1Sc1ccc(Cl)cc1
(43) Nc1nc(Nc2ccccc2Cl)cc(=O)[nH]1
(44) O=C(O)CC(CC(=O)N1CCOCC1)c1ccccc1 (configuration not stated)
(45) Cc1cc(NCCCn2ccnc2)n2nc(C)c(-c3ccccc3)c2n1
(46) NC(=O)C1CCN(C2CC(=O)N(c3ccc(F)c(Cl)c3)C2=O)CC1 (configuration not stated)
(47) Cn1c(SCC(=O)O)nnc1-c1ccc(NC(=O)c2ccc(Cl)c(Cl)c2)cc1
(48) O=C(Nc1ccc2c(c1)CCC2)c1ccc(F)c(S(=O)(=O)N2CCOCC2)c1
(49) Cc1cc2c(cc1S(=O)(=O)CCC(=O)N(C)Cc1ccccc1)OCC(=O)N2
(50) CCn1cc(S(=O)(=O)Nc2ccccc2C(F)(F)F)cn1
Compound,41,42,43,44,45,46,47,48,49,50
GLA inh pH 4.5,-3,-3,-5,/,2,3,-7,-11,/,-2
Rango dissoc inh,9%,-13%,0%,-5%,-1%,5%,-4%,2%,-7%,13%
Rango-impB inh,-4.1%,3.0%,-0.2%,0.0%,0.7%,-1.1%,-0.2%,-2.3%,-0.2%,1.4%
miR-21 reporter,-4%,12%,-5%,0%,-40%,-3%,-3%,-18%,-2%&-6%,0%

(51) CCOc1ccc2nc3cc(N=Nc4ccc(N)nc4N)ccc3c(N)c2c1
(52) CC(=O)Oc1ccc2oc(=O)c3c(c2c1)CCCN3C(=O)CN1CCN(c2ncccn2)CC1
(53) COc1ccc(NC(=O)NC(C)c2ccncc2)cc1OC (configuration not stated)
(54) CCOC(=O)C1CCN(C(=O)/C(=C/c2ccccc2)NC(=O)c2ccccc2)CC1
(55) CN(Cc1ccccc1)C(=O)COC(=O)c1ccccc1Nc1ccccc1
(56) Cc1cc(C(=O)CCC(=O)N2CCN(c3ccccc3O)CC2)c(C)s1
(57) c1ccc(-n2c(Cc3cccnc3)nc3cnccc32)cc1
(58) CCOc1ccccc1NC(=O)c1ccc(S(=O)(=O)N2CCCCC2)cc1
(59) N#Cc1c(-c2cccs2)cc(-c2ccccn2)nc1N
(60) Cc1ccccc1Nc1nc(N)nc(CSCC(=O)Nc2cccc(Br)c2)n1
Compound,51,52,53,54,55,56,57,58,59,60
GLA inh pH 4.5,/,0,1,/,6,/,/,/,3,-25
Rango dissoc inh,?,3%,16%,?,0%,-9%,-4%,1%,-6%,1%
Rango-impB inh,?,0.3%,-5.7%,?,1.1%,0.4%,5.1%,0.3%,-2.2%,-0.6%
miR-21 reporter,/,5%,-8%,-1%,-7%,/,/,?,-12%,-5%

(61) CCc1cc(=O)oc2cc(C)cc(O)c12
(62) Cc1cccc(C)c1NC(=O)C1c2ccccc2Oc2ccccc21
(63) CC(=O)c1cc2c(cc1NC(=O)c1cnc(C)cn1)OCO2
(64) C/C(N)=C(/C#N)C(=O)CSc1nnc(COc2ccccc2Cl)o1
(65) Cn1nc(C(F)(F)F)c(-c2ccc(Br)cc2)c1NC(=O)CSCC(=O)O
(66) CN(C(=O)c1ccc(NC(=O)Cc2ccc(NC(=O)C3CCCN(C(=O)C4CCCCC4)C3)cc2)cc1)C1CCCC1 (configuration not stated)
(67) Cc1c(C)n(Cc2ccccc2)c2ccc(C(=O)OCCCN(C)C)cc12
(68) CC(=O)c1ccc(N2CCN(CC(O)COC(c3ccccc3)c3ccccc3)CC2)cc1 (configuration not stated)
(69) Nc1nnc(SCC(=O)Nc2cccc3ccccc23)s1
(70) O=C(NCCCCCCNC(=O)OCCO)OCCO
(71) CCOC(=O)c1c(NC(=O)COC(=O)c2ccccc2NC)sc(C(=O)N(C)C)c1C
(72) CCOC(=O)C1=C(O)C(=O)N(c2ccc(S(N)(=O)=O)cc2)C1c1ccccc1 (configuration not stated)
Compound,61,62,63,64,65,66,67,68,69,70,71,72
GLA inh pH 4.5,-3,1,6,10,6,/,2,/,/,2,/,-1
Rango dissoc inh,?,14%,6%,2%&-6%,10%,-11%,2%,20%,2%,4%,-11%,-8%
Rango-impB inh,?,-3.9%,3.0%,-1.3%&0.4%,0.1%,-4.6%,-1.8%,4.6%,-1.2%,-1.7%,-0.8%,2.6%
miR-21 reporter,-3%,0%,-4%,-4%,2%,/,-2%,5%,2%,1%,0%,-1%

# Compound activity as filed in PubChem BioAssay.

# This is a subset (hit frequency here may not be typical).
